# Screens from PubChem.
# PKD1 kinase inh = PKD1 (human) kinase inhibition. inhibition, %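 (about 10 µM by stock and volumes)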. PKD1 kinase fluorescence polarization assay. Q15139. 200,000 compounds, 0.056% hits;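 active = inhibition of 50% or more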;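 also: controls were vehicle for no effect and a reference inhibitor for full effect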
# GALR2 agonist = GALR2 (human) receptor agonism; O43603; GALR2-expressing cells, agonist activation read-out; activation, %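 (tested at 5 µM)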; 140,000 compounds, 0.48% hits; AID 803;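 active = above mean plus 3 SD of all compounds, about 5% in these data, not always enough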;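 also: 0% = vehicle buffer wells and 100% = reference agonist at full effect; tested in CHO reporter cells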
# Target sequence (O43603 whole entry, looked up): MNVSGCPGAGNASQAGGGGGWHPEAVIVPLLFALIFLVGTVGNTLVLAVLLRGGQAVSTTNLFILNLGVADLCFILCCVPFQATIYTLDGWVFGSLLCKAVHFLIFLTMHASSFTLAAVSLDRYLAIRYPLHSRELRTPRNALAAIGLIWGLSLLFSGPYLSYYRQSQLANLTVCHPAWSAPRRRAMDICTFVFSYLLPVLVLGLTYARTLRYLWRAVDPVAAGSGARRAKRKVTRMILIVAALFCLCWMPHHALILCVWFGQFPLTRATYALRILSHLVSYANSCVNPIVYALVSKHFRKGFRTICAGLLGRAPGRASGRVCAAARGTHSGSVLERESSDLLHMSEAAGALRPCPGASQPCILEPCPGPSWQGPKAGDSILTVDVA
# RGS16-Gao = regulators of human RGS16-Galphao interaction; bead-based flow cytometry RGS16-Galphao binding, fluorescence; actives lie on both sides; binding response (% of control), % at 10 µM; AID 1441; 220,000 compounds, 0.38% hits;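 active = below 25% or above 175%, edge rows of some plates excepted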;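 also: Galphao activated by GDP with aluminum fluoride before binding; 100% = wells without compound and 0% = beads without RGS; some results beyond the cut were filed as inactive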
# Target sequence (O15492 whole entry, looked up): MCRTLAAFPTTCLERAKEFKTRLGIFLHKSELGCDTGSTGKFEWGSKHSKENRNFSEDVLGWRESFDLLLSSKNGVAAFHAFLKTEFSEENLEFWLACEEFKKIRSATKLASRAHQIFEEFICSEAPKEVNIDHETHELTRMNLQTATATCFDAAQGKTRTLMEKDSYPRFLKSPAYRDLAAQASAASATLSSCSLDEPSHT
# Target sequence (P09471 whole entry, looked up): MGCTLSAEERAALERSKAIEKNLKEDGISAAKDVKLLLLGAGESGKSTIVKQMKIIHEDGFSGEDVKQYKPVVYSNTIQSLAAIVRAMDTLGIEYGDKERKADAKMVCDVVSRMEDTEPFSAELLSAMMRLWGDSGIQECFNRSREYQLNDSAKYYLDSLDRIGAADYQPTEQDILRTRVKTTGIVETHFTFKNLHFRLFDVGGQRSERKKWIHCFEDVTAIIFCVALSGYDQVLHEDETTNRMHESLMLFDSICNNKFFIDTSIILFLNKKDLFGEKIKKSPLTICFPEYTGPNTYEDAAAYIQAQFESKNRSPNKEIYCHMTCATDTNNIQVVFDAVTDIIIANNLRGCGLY
# HSV replic up = HSV replication enhancement; HSV replication augmentation in cells, fold increase; maximum fold increase; 220,000 compounds, 0.005% hits; AID 1956;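 active = peak rise of 1.5-fold or more in the series; inconclusive = self-fluorescent or not available for retest; tested in PC3 cells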;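 also: first round at 10 µM; read as green reporter fluorescence; hits show the peak of a series up to 25 µM; 1 = signal of infected wells without compound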
# INS promoter inh = TRM-6 insulin promoter activity inhibition | TRM-6 cells (human fetal islet line), insulin promoter-eGFP reporter, imaging; reporter expression induced with tamoxifen | inhibition, % at 2 µM | AID 1273 | 130,000 compounds, 0.9% hits;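 active = inhibition above the mean plus 3 SD, with well images judged a real hit on visual review, cut at about 60% in these data, passing the limit was not always enough; inconclusive = inhibition over the cutoff but images rejected on review; inactive = inhibition not above the cutoff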
# INS promoter inh cell count = recorded beside INS promoter inh, whose call it bears; normalized cell count, %; measured here: cell count, toxicity; reference of the scale not given here;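 cells exposed to compound for 48 h; stained nuclei by imaging scaled within each plate; lower means fewer cells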
# HSV replic up primary fold = recorded beside HSV replic up, whose call it bears; fold increase; compound at 10 µM; measured here: primary screen fold increase 10 uM; tested in PC3 cells;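 GFP signal in the first replicate; 1 = infected wells without compound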
# Active calls of the source: *; i = inactive; ? = inconclusive; / = no result given.
SMILES,PKD1 kinase inh,GALR2 agonist,RGS16-Gao,HSV replic up,HSV replic up primary fold,INS promoter inh,INS promoter inh cell count
Cn1cc(C(=O)Nc2cccc(F)c2)cn1,-3.8,-3.1,93.5,i,1.11,-29.7,154.6
CCc1cc(C(N)=O)c(NC(=O)c2ccc(OC)cc2)s1,-8.2,-0.8,106.5,i,0.74,40.6,137.5
O=c1cc(N2CCCC2)c2ccccc2o1,-3.5,/,111.3,i,0.97,/,/
CCC(C)(C#CCN1CCCCC1)OCCC#N (configuration not stated),-7.3,-2.0,103.4,i,0.94,31.2,132.0
COC(=O)c1cn(C(=O)c2ccco2)c2ccccc12,4.7,-0.9,113.2,i,1.14,-28.1,122.0
Cc1ccc(N2C(=O)CCSC23C(=O)Nc2ccccc23)cc1 (configuration not stated),2.5,-2.2,90.8,i,0.92,-200.0,93.1
COc1ccc(O)c(/C=N/NC(=O)c2ccc(CSc3nc(C)cc(C)n3)cc2)c1,-17.3,-0.5,116.3,i,0.68,-39.7,43.4
CCOc1ccc(NC(=O)CC2C(=O)N(c3ccc(OC)cc3)C(=O)N2Cc2ccc(OC)cc2)cc1 (configuration not stated),-0.7,/,99.2,i,0.98,/,/
CCn1cc(C(=O)NCC2CCCO2)c(=O)c2cc(S(=O)(=O)N3CCC(C)CC3)ccc21 (configuration not stated),0.3,-2.7,106.4,i,0.89,/,/
COc1cccc(-n2c(SCC(=O)NC3CCCC3)nnc2-c2ccco2)c1,2.6,0.6,106.4,i,1.06,-200.0,96.9
C=CCNc1nc2c(c(=O)n(C)c(=O)n2C)n1CCCCCC,-1.5,0.9,98.8,i,1.02,-2.7,114.1
Cn1c(N/N=C/c2cc3ccccc3nc2Cl)nc2ccccc21,-1.8,-1.1,64.8,i,1.2,36.4,115.7
CCOC(=O)CON1C(=O)C(C)(C)N(OCC(=O)OCC)C(=O)C1(C)C,-3.9,-2.2,95.1,i,1.03,3.2,120.4
O=c1oc2cc(Br)ccc2n1CSC1=NCCS1,-6.8,-2.4,105.0,i,0.92,/,/
O=C(CSc1nnnn1-c1ccccc1)Nc1ccc(Cl)cc1,2.2,1.2,100.9,i,0.85,-11.7,151.6
CCOC(=O)N1CCN(S(=O)(=O)c2c(C)cc(C)cc2C)CC1,-10.1,-1.5,102.7,i,0.97,-25.0,117.9

# The closing 6 compounds of the section above come first, to join the parts.
SMILES,PKD1 kinase inh,GALR2 agonist,RGS16-Gao,HSV replic up,HSV replic up primary fold,INS promoter inh,INS promoter inh cell count
C=CCNc1nc2c(c(=O)n(C)c(=O)n2C)n1CCCCCC,-1.5,0.9,98.8,i,1.02,-2.7,114.1
Cn1c(N/N=C/c2cc3ccccc3nc2Cl)nc2ccccc21,-1.8,-1.1,64.8,i,1.2,36.4,115.7
CCOC(=O)CON1C(=O)C(C)(C)N(OCC(=O)OCC)C(=O)C1(C)C,-3.9,-2.2,95.1,i,1.03,3.2,120.4
O=c1oc2cc(Br)ccc2n1CSC1=NCCS1,-6.8,-2.4,105.0,i,0.92,/,/
O=C(CSc1nnnn1-c1ccccc1)Nc1ccc(Cl)cc1,2.2,1.2,100.9,i,0.85,-11.7,151.6
CCOC(=O)N1CCN(S(=O)(=O)c2c(C)cc(C)cc2C)CC1,-10.1,-1.5,102.7,i,0.97,-25.0,117.9
O=C(CN(Cc1ccc(F)cc1)S(=O)(=O)c1ccccc1)N1CCCCC1,4.0,-0.2,100.9,i,0.997,/,/
Cc1ccc(CNC(=O)c2ccccc2NC(=O)CSc2nnnn2C)cc1,19.1,-2.3,101.2,i,0.95,/,/
O=C(NCCc1ccccc1)C1CCCN(S(=O)(=O)c2cccc3nsnc23)C1 (configuration not stated),-2.5,0.7,101.7,i,1.04,/,/
Cc1cccc(S(=O)(=O)NCCc2cn3ccccc3n2)c1,-4.3,/,118.3,i,0.85,-42.9,125.2
CSCC[C@H](NC(=O)C1CCN(S(=O)(=O)c2ccc(C)cc2)CC1)C(=O)NCC1CCCO1 (some centres not stated),3.3,-1.2,84.2,i,1.12,/,/
CCCCN(CC)CCNC(=O)c1cc2c(C)nc3ccccc3c2o1,-10.3,0.5,103.6,i,0.7,/,/
COc1ccc(Cl)cc1S(=O)(=O)N1CCN(C(=O)c2cc(OC)c(OC)c(OC)c2)CC1,-0.3,-1.4,96.0,i,0.93,12.5,57.6
O=C(c1ccccc1)c1ccc(OCCCCN2CCCCC2)cc1,0.1,-1.1,107.6,i,0.863,-62.1,57.0
CCCCCOP(=O)(OCCCCC)C1(NS(=O)(=O)c2ccccc2)C=CC(=O)c2ccccc21 (configuration not stated),-0.9,-1.1,101.4,i,1.16,-61.0,48.4
O=C(N/N=C\c1cc([N+](=O)[O-])ccc1N1CCOCC1)c1ccccn1,0.1,/,101.3,i,0.96,/,/
Oc1ccc(-c2csc(Nc3ncccn3)n2)cc1,-6.9,/,107.4,i,0.68,/,/
COc1cccc(CNC(=S)Nc2cc(OC)ccc2OC)c1,-6.7,/,100.2,i,1.08,35.3,106.5
O=C(N/N=C\c1cccc(OC(=O)c2ccco2)c1)c1ccc2c(c1)OCO2,0.6,-0.1,104.9,i,0.92,-3.9,111.1
CC1C2(C)OCC(C#N)(C(=N)O2)C1(C#N)C#N (configuration not stated),/,/,111.5,i,1.03,/,/
Cc1cc(/C=C2/SC(=O)N(CC(=O)OC(C)C)C2=O)c(C)n1C,0.4,0.5,102.9,i,1.06,-8.1,155.3
Cc1cc(OCC(=O)Nc2ccc(N3CCN(C(=O)c4ccco4)CC3)cc2)cc(C)c1Cl,3.7,-4.2,98.9,i,0.87,-8.3,125.7
O=C(NCc1ccc2c(c1)OCO2)c1cc2n(n1)C(C(F)(F)F)CC(c1ccc3c(c1)OCO3)N2 (configuration not stated),-0.6,-1.7,66.5,/,/,/,/
CCN1CCN(C(=O)Cn2nc(-c3ccc(Cl)cc3)ccc2=O)CC1,-10.4,/,100.4,i,0.99,11.1,80.2
COc1cc2nc(=S)n3[nH]c(CCn4c(C)nc5ccccc54)nc3c2cc1OC,-4.5,-0.2,102.8,i,0.91,/,/
O=C(/C=C/c1cc([N+](=O)[O-])ccc1OC(F)F)NCc1ccc(Cl)cc1,10.8,-1.5,114.5,i,0.85,-15.9,61.0
CSc1nc(C)c(C(=O)Nc2ccccc2)c(-c2ccco2)c1C#N,/,/,99.5,i,0.93,/,/
O=C(/C=C/c1ccco1)Nc1ccccc1N1CCCCC1,-1.6,/,101.8,i,1.11,/,/
Cc1cccc(N2C(=O)C(O)=C(C(=O)c3cccs3)C2c2cccc(Oc3ccccc3)c2)n1 (configuration not stated),/,/,96.8,i,1.05,/,/
CC(=O)N1CCc2cc(C(=O)CN3CCN(c4ccccn4)CC3)ccc21,/,/,102.0,i,1.07,/,/
COCCN(CC(=O)NCc1ccc2c(c1)OCO2)C(=O)CCC(=O)Nc1nccs1,-1.6,-1.4,103.2,i,1.05,-169.2,42.8
COc1ccc(OC)c(C2C(C(C)=O)=C(O)C(=O)N2CCN2CCOCC2)c1 (configuration not stated),-7.7,-2.4,95.3,i,0.92,/,/
COc1ccc(C(=O)C[n+]2ccc(C)cc2)cc1,-8.8,-0.1,100.8,i,0.95,-35.5,85.3
CCc1nnc(NC(=O)CCC(=O)Nc2ccccc2)s1,-4.2,-1.7,94.2,i,0.79,34.5,156.4
CCn1cc(C(=O)Nc2sc(C)c(C)c2C(=O)OC)cn1,-7.1,-1.5,97.3,i,0.97,-23.8,110.7
Cc1cccc(-c2nsc(SCC(=O)NCC3CCCO3)n2)c1 (configuration not stated),-2.2,/,112.1,i,0.97,-9.1,107.4
COc1nc(NCc2ccco2)nc(NC2CCCCC2)n1,2.8,-1.0,100.8,i,1.02,/,/
O=C1Oc2ccccc2C2(O)C3CCCCCC3C12 (configuration not stated),7.4,-2.5,98.9,i,1.07,/,/
c1ccc(N2CCN(c3nc4ccccc4n4cnnc34)CC2)cc1,-1.3,-1.8,102.5,i,0.72,/,/
Cc1cc([N+](=O)[O-])nn1CC(=O)NCc1ccco1,-16.8,0.4,102.8,i,0.96,0.0,139.0
O=c1oc2cc(O)ccc2cc1-c1nc2c(s1)CCc1ccccc1-2,-11.1,13.7*,104.7,?,/,i,100.7
COc1ccc(C(=O)Nc2cc(C)nc3ccccc23)cc1OC,1.8,-1.2,96.5,i,1.03,3.6,138.1
O=C(O)C1CSC(c2ccc(O)c([N+](=O)[O-])c2)N1 (configuration not stated),2.2,/,115.3,i,1.05,/,/
CN(C)/C=C1\C(=O)NN=C1C(F)(F)F,-0.1,/,110.3,i,0.89,-36.4,102.2
Cc1ccc(CNC(=O)c2sccc2-n2cccc2)cc1,-16.2,-0.8,60.1,i,0.95,/,/
CCOc1ccccc1N1CCN(C(=O)c2cc[n+]([O-])cc2)CC1,7.2,-1.5,97.2,i,0.99,6.5,78.4
Cn1c(=O)[nH]c2ccc([N+](=O)[O-])nc21,2.5,-0.8,110.5,i,0.92,-47.7,126.3
O=C(O)C1CCN(C(=O)COc2ccc3c4c(c(=O)oc3c2)CCC4)CC1,3.1,0.6,88.7,i,1.06,/,/
CN(C)CC(O)COc1ccc(C(C)(C)c2ccc(OCC(O)CN(C)C)cc2)cc1 (configuration not stated),-3.5,-1.5,98.0,i,0.95,/,/
CC1CN(C(=O)c2ccc3c(c2)OCO3)CC(C)O1 (configuration not stated),-0.6,-0.3,102.7,i,0.98,-5.6,129.1
CCOC(=O)CSc1nc2ccccc2c(=O)n1Cc1ccco1,-6.3,-0.9,102.3,i,0.84,6.2,99.1
O=c1c(-c2n[nH]c(=S)o2)cccn1Cc1ccccc1,4.2,/,102.4,i,0.94,/,/
CCCNC(=O)NC(=O)COC(=O)c1oc2ccc(OCC)cc2c1C,-6.9,-3.1,107.9,i,1,34.8,112.6
O=S(=O)(/C=C/c1ccccc1)N1CCN(c2cccc(Cl)c2)CC1,-5.0,-2.4,91.9,i,0.93,-14.3,90.0
COc1ccc(C2CC(c3ccccc3)=NN2S(=O)(=O)c2ccccc2)c(OC)c1 (configuration not stated),-6.6,-0.7,99.1,i,0.91,-20.0,118.7
CCCC1S/C(=N/N=C/c2cccs2)NC1=O (configuration not stated),6.3,-2.6,101.1,i,0.86,/,/
Nc1nc(Nc2ccc(Cl)cc2)n[nH]1,-7.0,-0.6,106.1,i,0.83,35.1,58.1
C=CCOc1cc(C)nc(-c2ccccc2O)n1,-4.7,-3.3,107.0,i,0.92,-34.2,75.7
CN1CCN(c2ccc(Cl)cc2NC(=O)c2cccc(S(=O)(=O)N(C)C)c2)CC1,-5.5,1.1,99.9,i,0.85,13.2,42.2
CCc1ccc(C(=O)CC2(O)C(=O)N(CN3CCOCC3)c3ccccc32)cc1 (configuration not stated),-5.9,-3.4,109.0,i,0.96,/,/
COc1cc(NC(=O)c2ccc3c(c2)OCO3)ccc1NC(=O)c1cccs1,2.8,/,68.2,i,0.97,/,/
Cc1ccc(C(=O)CC(C(=O)O)n2cccn2)cc1 (configuration not stated),-4.0,-1.4,101.9,/,/,34.6,100.0

# Further structures
SMILES,PKD1 kinase inh,GALR2 agonist,RGS16-Gao,HSV replic up,HSV replic up primary fold,INS promoter inh,INS promoter inh cell count
Cc1cccc(OCC(=O)O/N=C(\N)c2ccccn2)c1C,-5.2,-5.9,129.4,i,1.05,-31.4,162.5
Cc1ccc(S(=O)(=O)N(C)/C(=N/S(=O)(=O)c2ccccc2)c2ccccc2)cc1,-8.3,-2.8,107.7,i,0.96,37.5,126.5
O=C1CSCN1c1cc(Cl)ccc1Cl,74.8*,/,101.7,i,1.07,9.1,100.0
CCC(=O)Nc1cccc(C(=O)OCC(=O)c2ccccc2Cl)c1,2.8,-3.2,108.2,i,0.98,50.0,127.6
CNC(=S)N1N=C(c2ccc(C)cc2)CC1c1ccc(N(C)C)cc1 (configuration not stated),-5.9,/,104.8,i,1,16.7,138.2
Nc1nnnn1CC(=O)N/N=C/c1ccccn1,/,/,104.5,i,1.25,/,/
CCOC(=O)N1CCC(NC(=O)C2=CCN(S(=O)(=O)c3ccc(OC)cc3)CC2)CC1,/,/,102.8,i,0.97,/,/
O=C(CN1CC(=O)Oc2ccccc21)OCC(=O)c1ccccc1,-5.4,0.0,91.4,i,0.73,/,/

# Compounds were not picked by outcome; about 1.3% have a hit in one of these screens.
